High-throughput results as filed in PubChem.
Choline anaer gr – inhibitors of anaerobic choline-dependent gram-negative bacterial growth; Gram-negative bacterium anaerobic choline minimal medium, absorbance growth; active compounds read low; many inactives read as strong as hits in the columns shown; calls only; actives 0.2% (n = 55,000);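 active = growth z-score on choline under -2 at 7 or 20 h with little or no fall on glycerol, limits in tiers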;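 also: stock transfer was 300 nL into about 50 µL; the organism is E. coli; final concentration not given here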
Choline anaer gr early – also measured in Choline anaer gr; calls as there; z-score; measured here: choline growth z-score, timepoint 1;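 score of optical density at 7 h as mean of two plates; lower means less growth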
Active calls of the source: *; i = inactive; & = joins results of further samples.

SMILES	Choline anaer gr	Choline anaer gr early
Cc1cccc(Cn2c(C3CCCO3)nc3ccccc32)c1 (stereo unspecified)	i	0.16
CN(CC(=O)N1CCN(c2ccccc2)CC1)S(=O)(=O)c1ccc2nc(-c3ccccc3)[nH]c2c1	i	1
CCn1ccc2cc(S(=O)(=O)N3CCCN(C(=O)Nc4cccc(OC)c4)CC3)ccc21	i	0.14
Cc1nc(CN2C(=O)COc3ccc(S(=O)(=O)NCC4CCCO4)cc32)no1 (stereo unspecified)	i	0.01
Cc1cc(-c2nc(-c3ccccc3Cl)no2)n[nH]1	i	0.02
CN1CCN(C2=Nc3cc(Cl)ccc3Nc3ccccc32)CC1	i	0.52&-0.71&-1.9&0.61
CCc1nc(SCc2cc(=O)n3ccsc3n2)n[nH]1	i	-1.4
Cc1nc(S(=O)(=O)N2CCC(c3cc4n(n3)CCCN(C)C4=O)CC2)cn1C	i	-1.6
COc1cccc(N2CC(NC(=O)C3CCCC3)CC2=O)c1 (stereo unspecified)	i	-0.2
COc1ccc(-c2n[nH]c(CCNC(=O)c3cccc(F)c3)n2)cc1	i	-1
CCOc1ccc(-c2noc(CSc3nccn3-c3ccccc3)n2)cc1OC	i	2.2
CCOC(=O)C1CCN(C(=O)CN2C(=O)C3CCCCN3c3ccc(C(=O)N(C)C)cc32)CC1 (stereo unspecified)	i	-0.53
CCc1onc(C)c1C1CCCN1C(=O)c1cc(C2CC2)on1 (stereo unspecified)	i	-1.6
CCOC(=O)c1c(C)[nH]c(CCC(=O)Nc2cc(-c3cccc(F)c3)no2)c1C	i	-0.14
O=C(CN1C(=O)CSc2ncccc21)NCc1cccc(F)c1	i	-0.1
Cc1cc(=O)n2[nH]c(CNc3ccccc3Cl)nc2n1	i	-0.3
Cn1nccc1-c1nc(-c2cccc(NC(=O)Nc3ccccc3)c2)no1	i	1.1
O=C(O)c1cccn2c(=O)c3cc(F)ccc3nc12	i	0.43
CCC(C)NC(=O)c1cccc(Oc2cc(-c3ccccc3)ncn2)c1 (stereo unspecified)	i	1.1
CCOC(=O)c1[nH]c(C)c(S(=O)(=O)N2CCc3ccccc32)c1C	i	1.2
Cc1cc(C(=O)N2CCCC2c2cc(C(C)C)no2)on1 (stereo unspecified)	i	-0.22
COC(=O)C1=CN(C)c2cc(N3CCC(Cc4ccccc4)CC3)c(F)cc2S1(=O)=O	i	0.08
Cc1ccc(S(=O)(=O)NCc2nc3cccnc3n2Cc2ccccc2)cc1C	i	0.14
Cc1ccc(-c2nccc(Oc3ccc(C(=O)Nc4ccc5c(c4)OCCO5)cc3)n2)cc1	i	0.35
CCc1[nH]n2c(=O)cc(C)nc2c1-c1ccccc1	i	0.03

Whole records from above. Order of screens: Choline anaer gr	Choline anaer gr early
Cc1ccc(S(=O)(=O)NCc2nc3cccnc3n2Cc2ccccc2)cc1C as listed: i	0.14
Cc1cc(=O)n2[nH]c(CNc3ccccc3Cl)nc2n1 as listed: i	-0.3

Of the compounds above, these have an NH in an aromatic ring:
SMILES	Choline anaer gr	Choline anaer gr early
CN(CC(=O)N1CCN(c2ccccc2)CC1)S(=O)(=O)c1ccc2nc(-c3ccccc3)[nH]c2c1	i	1
Cc1cc(-c2nc(-c3ccccc3Cl)no2)n[nH]1	i	0.02
CCc1nc(SCc2cc(=O)n3ccsc3n2)n[nH]1	i	-1.4
COc1ccc(-c2n[nH]c(CCNC(=O)c3cccc(F)c3)n2)cc1	i	-1
CCOC(=O)c1c(C)[nH]c(CCC(=O)Nc2cc(-c3cccc(F)c3)no2)c1C	i	-0.14
Cc1cc(=O)n2[nH]c(CNc3ccccc3Cl)nc2n1	i	-0.3
CCOC(=O)c1[nH]c(C)c(S(=O)(=O)N2CCc3ccccc32)c1C	i	1.2
CCc1[nH]n2c(=O)cc(C)nc2c1-c1ccccc1	i	0.03

Additional entries:
SMILES	Choline anaer gr	Choline anaer gr early
CCCN1C=NS(=O)(=O)c2cc(C(=O)NC(C)(C)C)ccc21	i	0.75
COc1ccc(C)cc1NC(=O)CCn1cccc1	i	-0.35
Cc1cccc(CN2CCC(CNC(=O)c3cc4c(=O)oc5ccc(C)cc5c4s3)CC2)c1	i	0.06
O=c1cc(CN(CCO)CCO)nc2nc(-c3ccc(Cl)cc3)[nH]n12	i	0.18
Cc1oc2ncnc(N3CCCC(C(=O)NCc4cccc(Cl)c4)C3)c2c1C (stereo unspecified)	i	-0.22
CCn1nc(C)c(CCN(C)C(=O)Nc2ccccc2F)c1C	i	1.1
O=C(C1=Cc2ccccc2OC1)N1CCOCC1	i	-0.82
Cc1ccc(-n2nc(N3CCCN(C(=O)Nc4ccc(C)cc4Cl)CC3)ccc2=O)cc1	i	0.42
O=C(NCCc1c[nH]c2ccccc12)Nc1ccccc1	i	1.4
COC(=O)c1c(NC(=O)c2cc3ccccc3c(=O)o2)sc2c1CCCC2	i	0.31
Cc1ccc(N2CC(C(=O)Nc3cc(-c4nc(C)cs4)sc3C)CC2=O)cc1 (stereo unspecified)	i	-0.33
Cc1nn(C(=O)Nc2ccc(Br)cc2)c2ccccc12	i	1.1
COc1cccc(CNC(=O)C2(C)CCCN(S(=O)(=O)c3ccc(C(C)(C)C)cc3)C2)c1 (stereo unspecified)	i	0.36
O=C(/C=C/c1cccc(C(=O)NO)c1)NO	i	0.55
O=C(NCc1ccc(Br)cc1)C1CCCN(c2ccnc(-c3ccc(F)cc3)n2)C1 (stereo unspecified)	i	0.33
CCCCCC(=O)CC[C@H]1C=CC(=O)[C@@H]1C/C=C\CCCC(=O)O	i	0.95
CCOC(=O)CNC(=O)Cn1c(-n2nc(C)cc2C)nc2c(c1=O)CCC2	i	-0.6
Cc1ccc(NC(=O)Cc2csc(C)n2)c(C)c1	i	-0.64
Cn1c(=O)c(C(=O)N2CCN(c3ccccn3)CC2)nn(-c2ccccc2)c1=O	i	-2.4
COCc1cc(=O)n2c(n1)N(Cc1c(C)noc1C)CC2	i	0.24
CCOC(=O)c1[nH]c(C)c(CN(Cc2ccc(OC)cc2)S(=O)(=O)c2ccc(C)cc2)c1C	i	0.14
O=C(CSc1nc2c(sc3ncccc32)c(=O)n1Cc1ccccc1)Nc1ccc(F)c(F)c1	i	0.59
O=C(Cn1c(=O)c2cc(Cl)ccc2n2nncc12)Nc1ccccc1	i	0.24
CCC(=O)NC1CC(=O)N(c2ccc3c(c2)OCCO3)C1 (stereo unspecified)	i	-1.3
O=C(CN1C(=O)COc2ccc(Cl)cc21)Nc1ccc(CCc2nc3ccccc3[nH]2)cc1	i	0.94
SMILES	Choline anaer gr	Choline anaer gr early
CCOc1ccc(S(=O)(=O)Nc2c(-n3cnnc3)nn(C)c2C)cc1	i	-0.06
CCc1ccc(CNC(=O)CN2CCN(Cc3ccc(F)cc3Cl)C2=O)cc1	i	-1
CCOc1cc(C)c(S(=O)(=O)N2CCc3cc4ccc(OC)cc4nc32)cc1C	i	-1.9
O=C(Nc1ccc2nc3n(c(=O)c2c1)CCCC3)Nc1ccc(F)cc1F	i	1.1
O=C(Cn1nc(Cc2ccncc2)c2ccccc2c1=O)N1CCC(Cc2ccccc2)CC1	i	-0.09
CCCn1c(=O)c2ccc(C(=O)NC(C)C)cc2n2c(SCC(=O)c3ccc(F)cc3)nnc12	i	-0.17
O=C(c1c(-c2ccccc2)nc2n1CCS2(=O)=O)N1CCOCC1	i	-2
O=C(Nc1ccc(Cl)cc1)N1CCN(Cc2cc(=O)n3nc(-c4ccc(F)cc4)sc3n2)CC1	i	-0.18
Cc1ccc(COc2ccc(C3CC(=O)Nc4c3cnn4-c3ccc4nnc(C)n4n3)cc2)cc1 (stereo unspecified)	i	1.1
CCOc1ccccc1OC(=O)c1cc2c(C)nn(-c3ccccc3)c2s1	i	0.75
Cc1sc(-c2cc(C(F)(F)F)on2)cc1S(=O)(=O)NCc1ccccc1Cl	i	0.26
CCCCNC(=O)C1CCCN(C(=O)Nc2ccc(S(=O)(=O)N(CC)CC)s2)C1 (stereo unspecified)	i	-0.58
O=S(=O)(Cc1nc(-c2ccc(Br)cc2)no1)c1ccc(F)cc1	i	-0.04
Cc1cc2nc(COc3cc(Cl)ccc3NC(=O)COc3ccccc3)cc(=O)n2o1	i	-1.9
Cc1cccc(C(=O)Nc2ccc3c(c2)oc(=O)n3C)c1	i	-0.03
COc1ccc(NC(=O)Cn2cccc2-c2nnc(-c3ccccc3)o2)c(OC)c1	i	-0.65
O=C(c1csc(S(=O)(=O)NC2CCCCC2)c1)N1CCCC1	i	0.82
Cc1ccccc1-c1cc(N2CCN(S(=O)(=O)c3c(C)noc3C)CC2)ncn1	i	0.24
Cn1cc(C(=O)Nc2ccc(F)cc2)c2[nH]c(=O)n(-c3ccc(Cl)cc3)c(=O)c21	i	0.61
O=C(Nc1ccc(F)cc1)c1cncc(NS(=O)(=O)c2ccc(F)cc2)c1	i	-0.94
COC(=O)Cn1c(=O)oc2cc(S(=O)(=O)NC3CCN(Cc4ccccc4)CC3)ccc21	i	-0.38
COc1cc(C)c(C)cc1S(=O)(=O)N1CCc2cc3cccc(C)c3nc21	i	-0.64
O=C(c1snc2c(=O)n(Cc3ccccc3)cnc12)N1CCN(c2ccccn2)CC1	i	1.5
CCn1c(=O)c(=O)n(CC)c2cc(S(=O)(=O)c3ccc(F)cc3)c(N)cc21	i	-0.1
CCCS(=O)(=O)N1CCCC1c1cc(C(C)C)on1 (stereo unspecified)	i	0.64

Laid out differently: entries from further up.
molecule,Choline anaer gr,Choline anaer gr early
O=S(=O)(Cc1nc(-c2ccc(Br)cc2)no1)c1ccc(F)cc1,i,-0.04
Cc1ccccc1-c1cc(N2CCN(S(=O)(=O)c3c(C)noc3C)CC2)ncn1,i,0.24

Remaining list, next part:
SMILES	Choline anaer gr	Choline anaer gr early
O=c1[nH]c2c(-c3ccccn3)nsc2c(=O)n1C1CC1	i	-0.09
O=S(=O)(c1ccccc1Cl)N1CCN(c2nc3ccccc3n3cccc23)CC1	i	1.4
CCc1c(CCNC(=O)Nc2ccccc2)csc1C	i	1.6
CC(C)c1ccc(S(=O)(=O)c2cnc(N3CCC(N4CCCCC4)CC3)nc2N)cc1	i	-0.87
COc1ccc(-n2nnc(-c3nsc(Nc4cccc(Cl)c4)n3)c2C)cc1	i	0.87
COc1ccc(NC(=O)Cn2c(=O)c(C(F)(F)F)nc3ccccc32)cc1	i	0.42
O=C(Cc1cccs1)N1CCN(c2ncnc3c2CCC3)CC1	i	0
Cc1ccc(-n2ccc(=O)c(-c3nc(-c4ccc5c(c4)OCO5)no3)n2)cc1	i	0.21
CC(C)S(=O)(=O)c1cc2c(cc1NC(=O)c1ccc(C(C)(C)C)cc1)n(C)c(=O)c(=O)n2C	i	0.03
COc1c2ccoc2nc2c(OC)c(O)ccc12	i	0.23
CN1CCCc2cc(C(CNC(=O)COc3ccc(Cl)cc3)N3CCCC3)ccc21 (stereo unspecified)	i	0.74
O=C1C(SCCO)=C(SCCO)C(=O)c2ccccc21	i	1.1&-2.1&-1.6
Cc1[nH]c(C)c(S(=O)(=O)N2CCC(C(=O)Nc3cc(F)ccc3F)CC2)c1C(=O)N1CCCC1	i	-1.7
CC(c1ccccc1)N1C(=O)c2ccncc2C1=O (stereo unspecified)	i	-1.2
Cc1cc(C)c(Cn2cccc2C2=NC(C)CO2)c(C)c1 (stereo unspecified)	i	-0.3
Cc1cc(C2CCCN2C(=O)NC(C)C)on1 (stereo unspecified)	i	-0.92
O=C(CCN(CCc1ccccc1)C(=O)c1ccc(Cl)cc1)N1CCNCC1	i	-1
O=C(CCCCCN1C(=O)c2cccc3cccc(c23)C1=O)NO	i	0.16
Cc1noc2ncnc(N3CCCC(C(=O)Nc4ccc(F)cc4F)C3)c12 (stereo unspecified)	i	-0.77
Cn1c(=O)n(Cc2ccc(Cl)cc2)c(=O)c2cnc(-c3cccnc3)nc21	i	-1.2
O=C(CN1C(=O)c2ccccc2S1(=O)=O)Nc1ccc(S(=O)(=O)Nc2ccccc2)cc1	i	0.19
CN(CC(=O)N1CCOCC1)c1nc(C2CC2)nc2c1CCC2	i	0.98
Cc1ccc(-c2noc(C3CCCN3S(=O)(=O)c3ccc(C(C)C)cc3)n2)cc1 (stereo unspecified)	i	1.7
C=CCn1c(=O)c2ccc(C(=O)NCc3ccc4c(c3)OCO4)cc2n(CC(=O)Nc2ccc(CC)cc2)c1=O	i	0.25
CCc1nc(-c2csc(S(=O)(=O)N3CCCC(C(=O)Nc4cc(C)on4)C3)c2)no1 (stereo unspecified)	i	-0.28
SMILES	Choline anaer gr	Choline anaer gr early
CN1CCc2c(sc3c2CN(C(=O)Nc2ccc(F)cc2F)C(c2ccc(Cl)cc2)c2cccn2-3)C1 (stereo unspecified)	i	-0.43
CC1CCN(S(=O)(=O)c2ccc3c(c2)c(=O)c(C(=O)N(CC2CC=CCC2)CC2CCCO2)cn3C)CC1 (stereo unspecified)	i	0
O=C(Nc1cccc(Cl)c1)Nc1ccc2nc3n(c(=O)c2c1)CCC3	i	-0.97
CCCS(=O)(=O)N1CCC(c2c(C)n(Cc3ccccc3C)c3ccccc23)CC1	i	0.31
Cn1c(=O)c(N2CCC(C(=O)NCCc3c[nH]c4ccccc34)CC2)nc2cccnc21	i	0.5
Cc1ccc(C2=NS(=O)(=O)N(C)C(C(=O)Nc3cc(C)on3)=C2)cc1	i	0.56
CNC(=O)c1c(NC(=O)c2csnn2)sc2c1CCCC2	i	-0.4
COc1ccc(NC(=O)c2cc3nc(-c4ccc(C)cc4)cc(C(F)(F)F)n3n2)cc1	i	1.4
COc1cccc(N2CCN(C(=O)c3cc(C(F)(F)F)n(C)n3)CC2)c1	i	0.72
Cc1cccc(C)c1NC(=O)CN1C(=O)c2ccccc2S1(=O)=O	i	-0.59
Fc1ccc2[nH]c(CN3CCN(c4ccccn4)CC3)cc2c1	i	-0.59
CC(C)CCN1C(=O)c2ccc(-c3ccccc3)n2CC1(C)C(=O)NC1CCC(C)CC1 (stereo unspecified)	i	1.3

A portion of the library (hit frequency here may not be typical).
